# Vaccinia mCherry: inhibitors of vaccinia virus infection (mCherry reporter signal) | Potency, µM (titrated, usually from 36.5 µM), inactives show at the highest dose activity change, negative = inhibition, hits mostly inhibitors | Vaccinia virus mCherry reporter infection, fluorescence; about a quarter of the inactives have no number | 310,000 tested, 0.63% active; active = well fitted inhibition curve with a large enough effect; inconclusive = small, poorly fitted or top-dose-only effect; inactive = no such curve, though single readings can be large or run the other way; tested in A549 cells; further: nearly all actives have a fitted effect of over 35% in size; inactives centre near -10
# Vaccinia Venus: inhibitors of vaccinia virus (Venus reporter); AID 720580; Vaccinia virus Venus reporter expression, fluorescence; Potency, µM (highest dose often 36.5 µM), for the others: top-dose activity change, negative = inhibition, hits mostly inhibitors; 330,000 tested, 0.46% active; active means well fitted inhibition curve with a large enough effect; inconclusive means small, poorly fitted or top-dose-only effect; inactive means no such curve, though single readings can be large or run the other way; tested in A549 cells; further: nearly all actives have a fitted effect of over 30% in size; inactives centre near -10
# Starred values were filed as active, the others as inactive; i = inactive; ? = inconclusive; · = not tested or not shown; [ ] = remark or other dose. On the % scale 0 is the no-effect control and ±100 the full control effect; potency means the concentration at half of the fitted maximal effect. Outcome played no part in choosing rows; about 0.88% have a hit in one of these screens.
# Order of results: Vaccinia mCherry, Vaccinia Venus
1	COc1ccc(NS(=O)(=O)c2ccc(C)c(NC(=O)c3ccc(C)c(S(=O)(=O)N4CCOCC4)c3)c2)cc1
  -14%, -14%
2	COc1ccc(C)cc1NC(=O)CSc1nnc2ccc(-c3ccncc3)nn12
  -3%, -9%
3	NC(=O)CSc1nnc(-c2ccc(S(=O)(=O)N3CCCC3)cc2)o1
  ?, 3.2µM*
4	CCOC(=O)c1c(-c2ccc(C)o2)csc1NC(=S)NC(=O)c1cccs1
  i, -24%
5	O=C1N[C@@H](Cc2ccccc2)COC(=O)[C@@H](Cc2ccc(F)cc2)CC/C=C/C[C@H]1CC(=O)N(CCO)Cc1ccccc1
  ?, 11µM*
6	O=C1CCCCN1CC(=O)N1CCCC(N2CCN(c3ccccc3F)CC2)C1 (centres undefined)
  -13%, -8%
7	Cc1nn(-c2ccccc2)c(N2CCCC2)c1/C=C1\N=C(c2ccc(OC(C)C)cc2)OC1=O
  i, -10%
8	Cc1ccc(S(=O)(=O)CCc2nnc(N)s2)cc1C
  -11%, -12%
9	CCn1c(=S)sc2c(=O)n(CC(=O)NC(C)CCc3ccccc3)c(C)nc21 (centres undefined)
  i[7.34 µM], -14%[7.34 µM]
10	CCc1nc2cc(C(=O)N3CCC[C@H]3C(=O)OC)cc(NC(=O)c3ccccc3OC)c2n1C
  i, -26%
11	Cc1ccc2c(c1)N(CC(=O)NCCCN1C(C)CCCC1C)C(=O)c1cccnc1O2 (centres undefined)
  -7%, -2%
12	CC(=O)c1ccc(S(=O)(=O)N2CCN(c3nc(-c4ccccc4)nc4ccccc34)CC2)cc1
  -13%, -13%
13	Cc1ccc(NC(C(N)=O)c2c(C)[nH]c(=O)[nH]c2=O)cc1 (centres undefined)
  i, -13%
14	O=C(Nc1cccc(Cl)c1Cl)c1cc(S(=O)(=O)N2CCCc3ccccc32)ccc1F
  11%, -4%
15	COC(=O)[C@]1(Cc2ccccc2)N[C@H](CN(C)C(=O)Nc2ccc(Cl)cc2)[C@@H]2C(=O)N(C)C(=O)[C@@H]21
  -23%, -26%
16	Cc1ccc(C)c(NC(=O)c2cc3ccccn3n2)c1
  -5%, -1%
17	Cc1ccc(COc2ccc(C)nc2[N+](=O)[O-])cc1
  i, -11%
18	O=C(NCC(=O)N(c1cccc(F)c1)C(C(=O)NC1CCCC1)c1cccnc1)c1ccco1 (centres undefined)
  -12%, -11%
19	CCc1nn2c(-c3ccco3)ccnc2c1-c1ccccc1
  -18%, -6%
20	COC(=O)c1ccc(C2NC(c3ccc4c(c3)OCO4)=CC(c3ccccc3O)N2)cc1 (centres undefined)
  -26%, -18%
21	Brc1ccc[n+](CCc2ccccc2)c1
  -9%, -20%
22	COc1ccc(-c2cn(CCC(=O)NCc3ccc(C)cc3)c(CCN)n2)cc1
  -21%, -9%
23	N#CC1=C(N)OC2=C(CC/C2=C\c2ccccc2)C1c1ccccc1 (centres undefined)
  -11%, 8%
24	CCn1cc(C=O)c2cc(S(=O)(=O)N3CCOCC3)ccc21
  i, -16%
25	COc1ccc(C2(CNC(C)=O)CCOCC2)cc1OC
  -12%, 1%
26	O=C(NC1CC1)C1=C[C@H](c2c[nH]c3ccccc23)C[C@H](OCc2ccc(CO)cc2)O1
  -18%, -18%
27	Cc1cccc(CN2C(=O)c3ccccc3S(=O)(=O)c3ccc(C(=O)NCCC4=CCCCC4)cc32)c1
  -9%, -14%
28	Cc1nnc2sc(SCc3cccc(Cl)c3)nn2c1=O
  ?, -5%
29	CSc1ccccc1OCc1cc(C(=O)N(C)C(C)c2nc(C)cs2)no1 (centres undefined)
  -16%, -15%
30	CCCCn1c(=O)[nH]c(=O)c2c1nc(-c1ccc(C(F)(F)F)cc1)n2C
  -4%, -5%
31	O=C1C=C(c2ccc(OC(F)(F)F)cc2)C[C@@H](c2ccc(Cl)cc2)C1
  -21%, -25%
32	Cc1ccc2cc(C)c3nnc(SCC(=O)c4cccs4)n3c2c1C
  -23%, -19%
33	Nc1c(C(=O)NCCc2ccccc2)sc2nc(N3CCOCC3)c3c(c12)CCCC3
  ?, -26%
34	CCOc1ccccc1-c1cncc(NC)n1
  i, 2%
35	Cc1cc(Br)c(NC(=O)CN2CCCC2)c(Br)c1
  i, 4%
36	CCOc1ccc(C(=O)CCC(=O)N(CC)CC(=O)Nc2c(F)cccc2F)cc1
  -9%, 7%
37	Cc1ccn2c(Nc3ccccc3C)c(-c3ccc(N4CCOCC4)cc3)nc2c1
  -15%, -15%
38	O=C(/C=C/c1ccc(Br)cc1)NC(=S)N1C[C@H]2C[C@H](C1)c1cccc(=O)n1C2
  2%, -5%
39	CSCCC(NC(=O)c1ccccc1Cl)C(=O)N1CCC1 (centres undefined)
  i, -8%
40	O=[N+]([O-])c1cccnc1NCCc1ccccc1
  -14%, -18%
41	NC(=O)CSc1oc(-c2cccs2)nc1S(=O)(=O)c1ccc(Br)cc1
  -16%, -6%
42	Cc1cccc(-c2nc3ccccc3n2Cc2ccccc2)c1
  6%, -8%
43	COc1cccc(C(=O)NC2CCN(CC(=O)NCc3ccccc3F)CC2)c1
  11%, 1%
44	COc1cccc2c1cc1c(=O)n(CC(=O)NCc3ccc(N(C)C)cc3)nc(C)n12
  -15%, -9%
45	CCCCN1CC(COCc2ccccc2)Oc2cccc(OCc3ccc(OC)cc3)c2S1(=O)=O (centres undefined)
  i, -12%
46	Cc1ccc(CNC(=O)C(C)n2nc(C)c3sc4ccccc4c3c2=O)cc1 (centres undefined)
  -4%, -5%
47	CCCOc1ccc(C(C(=O)OCCN(CC)CC)c2ccccc2)cc1 (centres undefined)
  i, -14%
48	COc1ccc(C(=O)n2nc(-c3ccco3)nc2SC)cc1OC
  -9%, 3%
49	CCC(C(=O)Nc1ccc(S(=O)(=O)N2CCN(C)CC2)cc1)c1ccccc1 (centres undefined)
  i, -14%
50	COc1ccc(C(=O)NC(=S)NCc2ccccc2)cc1
  -8%, -4%

# Further records follow:
# Order of results: Vaccinia mCherry, Vaccinia Venus
51	O=C(C[C@@H]1C/C=C\CCC(=O)OC[C@@H]2CCCN2C1=O)NCCO
  -9%, -24%
52	Cc1coc2cc3oc(=O)c(CCC(=O)N4CCC(C(=O)O)(c5ccccc5)CC4)c(C)c3cc12
  -1%, -3%
53	O=C(O)c1ccc(S(=O)(=O)N2CCC(n3nnc4cc(C(F)(F)F)ccc43)CC2)cc1
  -12%, -7%
54	COc1ccc(-c2nc3c4c(ncn3n2)-c2ccccc2CC42CCCC2)cc1
  -4%, -3%
55	COc1cc(/C=C/C(=O)O)cc(S(=O)(=O)NNC(=O)c2ccc3c(c2)OCO3)c1OC
  -17%, -16%
56	COc1ccc(CCCNC(=O)CC#N)cc1OC
  -8%, -11%
57	Cc1cc(C=O)c(C)n1-c1ccc(N2CCOCC2)c([N+](=O)[O-])c1
  i, -4%
58	COc1ccc(C(=O)COC(=O)c2ccc(Cl)nc2)cc1OC
  -17%, -13%
59	Cc1ccc(S(=O)(=O)N2CCCCC2)cc1NC(=O)Cc1c[nH]c2ccccc12
  -20%, -9%
60	C/C(Cc1ccccc1)=N\NC(=O)CNC(=O)c1ccccc1Cl
  -2%, -7%
61	CC12CCC(=O)N1C(C(=O)N1CCN(c3ccc([N+](=O)[O-])cc3)CC1)CS2 (centres undefined)
  i, 0%
62	COC(=O)[C@@H]1C(c2c(OC)cc(OC)cc2OC)=NO[C@H]1C(=O)OC
  -8%, -2%
63	COc1ccccc1N1CCN(Cc2cc(=O)c(OCC(=O)Nc3ccccc3)co2)CC1
  -18%, -18%
64	CC1=C(C(=O)N2CCOCC2)C(c2ccccc2F)NC(=O)N1 (centres undefined)
  i, -5%
65	CSc1ncc(C(=O)NCc2ccccc2Cl)c(C(F)(F)F)n1
  -7%, 0%
66	O=c1[nH]c2ccc(NS(=O)(=O)c3ccc(F)c(Cl)c3)cc2[nH]1
  i, -9%
67	COc1ccccc1CCc1nnc(CCC(=O)N(C)Cc2ccncc2C)o1
  i, -3%
68	CCCc1cc(=O)c2ccc(OCC(C)=O)cc2o1
  -2%, -14%
69	COc1cc(/C=N/NC(=O)c2cc(C)oc2C)ccc1OCc1ccccc1
  -22%, 13%
70	Cc1nnc(SCC(=O)NC2CCCc3ccccc32)n1-c1ccccc1 (centres undefined)
  -12%, -2%
71	CN(CC(=O)Nc1ccc(Cl)cc1)S(=O)(=O)c1cccc2cccnc12
  i, -10%
72	O=C(NC1CCCCC1)C1(S(=O)(=O)c2ccc(Cl)cc2)CC1
  -19%, 3%
73	COC(=O)c1c(NC(=O)C(C)(C)C)csc1C
  i, -6%
74	CCN(CC(=O)NCc1cccs1)C(=O)COc1ccccc1C#N
  -17%, -2%
75	CC(C)(C)NC(=O)CN(Cc1ccc(F)cc1)C(=O)Cn1nnc(-c2ccc(F)cc2)n1
  i, -22%
76	Cc1ccc(S(=O)(=O)N2[C@@H](c3ccc(Cl)cc3)C(C(=O)O)=CC[C@H]2c2cccc(Cl)c2)cc1
  -23%, -14%
77	CC(C)CNS(=O)(=O)c1ccc(CCC(=O)N2CCN(c3ccccc3)CC2)cc1
  -7%, -15%
78	Cc1ccc2c(CC(=O)NCc3ccccc3)coc2c1C
  -9%, -17%
79	COc1ccc(NS(=O)(=O)c2cc(NC(=O)c3nn(C)c(=O)c4ccccc34)ccc2OC)cc1
  -11%, -10%
80	CC(=O)c1ccc(N2CCN(C(=O)Cc3ccccc3)CC2)c(F)c1
  -9%, -4%
81	CCc1nc2c(OCc3ccc(F)c(F)c3)cccn2c1N(C)C(=O)C(C)C
  i, -11%
82	Cc1ccc(NC(=O)CCN2CCC(Cc3ccccc3)CC2)cc1
  i, -20%
83	Cn1c(CN2CCN(C(=O)c3ccccc3Cl)CC2)nc2cc([N+](=O)[O-])ccc21
  -15%, -11%
84	O=C(CSc1nc2c(c(=O)n1-c1ccc(Cl)cc1)SCC2)N1CCCC1
  -4%, -6%
85	CN(c1ccccc1C(=O)NC1CC2CCC1C2)S(=O)(=O)c1ccccc1 (centres undefined)
  -17%, 0%
86	COc1ccc(CCNC(=O)c2cc(-c3ccccc3OC)on2)cc1OC
  ?, -18%
87	COCCNC(=O)C(c1ccc(F)cc1)N(CCOC)C(=O)CCC(=O)Nc1nccs1 (centres undefined)
  ·, -8%
88	COc1cccc(OC)c1C(=O)Nc1cccc(-c2nc3ccccc3[nH]2)c1
  i, -1%
89	CCOc1ccc(NC(=O)NC2CCOC(C)(C)C2)cc1 (centres undefined)
  ·, -16%
90	Nc1c(C(=O)OCC(=O)Nc2ccccc2Br)[nH]c(=O)[nH]c1=O
  -18%, -1%
91	COc1ccc(-c2nc(CSCC(=O)NCCC(C)C)c(C)o2)cc1OC
  -2%, -14%
92	Cc1oc2ccc(O)c(CN3CCN(C)CC3)c2c1C(=O)Nc1cccc(C(F)(F)F)c1
  -14%, -12%
93	CCCCNC(=O)CSc1c2c(nc3ccc(Cl)cc13)CCCC2
  3%, -5%
94	CC1=C/C(=N\NC(=S)NCc2ccccc2)CC1
  -7%, -15%
95	CCCCCC(=O)N1C[C@@H](O)[C@H](n2cc(C3CC3)nn2)C[C@@H]1c1ccc(OC)cc1
  6%, -7%
96	Cc1ccc(NC(=O)c2cc(-c3ccco3)nc3ccccc23)cc1S(=O)(=O)N1CCOCC1
  -7%, 6%
97	C/C(=C\C(=O)O)CC(=O)O
  ·, -11%
98	S=C(NCc1ccco1)Nc1cccc(Cl)c1Cl
  -2%, -20%
99	CN(C)CCn1c2c(c(SCC(=O)Nc3ccc4c(c3)OCCO4)nc1=O)CCC2
  -1%, -12%
100	COc1ccc(OC)c(NC(=O)Cn2c(=O)oc3ccccc32)c1
  ·, -10%

# Next part
# Order of results: Vaccinia mCherry, Vaccinia Venus
101	CCOC(=O)c1c(C)oc2ccc(N(C(=O)c3ccncc3)S(=O)(=O)c3ccc(CC)cc3)cc12
  ?, ?
102	Cc1ccc(S(=O)(=O)N(C)C[C@@H]2Oc3ccc(NC(=O)CCC(F)(F)F)cc3CC(=O)N([C@@H](C)CO)C[C@@H]2C)cc1
  -8%, ?
103	Cc1cc(N2CCN(C)CC2)nc2ccc(NC(=S)N3CCOCC3)cc12
  -24%, 1%
104	COC(=O)c1ccc(C2C(C(=O)Nc3ccc(C)cc3C)=C(C)Nc3ncnn32)cc1 (centres undefined)
  -14%, -25%
105	Cc1ccc(NC(=O)Cn2cnc3c(oc4ccccc43)c2=O)cc1Cl
  -12%, -7%
106	CCc1nn(Cc2c(C)cc(C)cc2C)c(=O)c2cc3cc(C)ccc3n12
  1%, 8%

# Assay outcomes (PubChem)
